High-throughput results from PubChem BioAssay.
GLA inh pH 4.5 – blocks human alpha-galactosidase A at pH 4.5; activity change, negative = inhibition, % at 105 µM; purified enzyme, 4-MU-alpha-Gal fluorescence, pH 4.5; 230,000 tested, under 10 active; AID 1467; P06280; inconclusive = small, poorly fitted or top-dose-only inhibition, or a rising curve; inactive = flat fitted curve, though single readings scatter; no compound was filed as active;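 note: 0% = full activity with enzyme and -100% = basal without enzyme; dose as in the result columns while the protocol names 77 µM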
miR-21 FLuc – miR-21 reporter, rising signal. Potency, µM (top dose mostly 38.3 µM), for inactives: at the top dose reporter change, positive = more light. HeLa miR-21 FLuc reporter, luciferase, 48 h. AID 2288. 340,000 tested, under 10 active; active = well fitted rising curve with a large enough effect; inconclusive = small, poorly fitted or top-dose-only effect; inactive = no such curve, though single readings can be large or run the other way;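 note: % of control where 0% means no effect; miR-21 action dims this reporter so a rising signal means less miR-21 action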
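Using DMEM plus 10% FBS, HeLa miR-21-FLuc cells are incubated with test compounds (final up to about 40uM) for 48 hours; firefly luciferase signal is then imaged following reagent-mediated lysis.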
Rango-impB inh – inhibitors of Rango-importin beta complex formation | Rango CFP/YFP FRET sensor + importin beta, 45 min | Potency, µM (titrated, usually from 92.2 µM), inactives show at the highest dose inhibition of complex formation | Q14974 | AID 540263 | 340,000 compounds, 0.031% hits; active = rising FRET ratio curve, often small or poorly fitted; inconclusive = mostly compound fluorescence or quenching in the first reads; inactive = flat curves in all reads;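 note: potency is the fitted concentration of half-maximal effect; 0% = DMSO wells and 100% = buffer wells lacking importin beta; nearly all actives have a fitted effect of over 15% in size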
Target sequence (Q14974 whole entry, looked up): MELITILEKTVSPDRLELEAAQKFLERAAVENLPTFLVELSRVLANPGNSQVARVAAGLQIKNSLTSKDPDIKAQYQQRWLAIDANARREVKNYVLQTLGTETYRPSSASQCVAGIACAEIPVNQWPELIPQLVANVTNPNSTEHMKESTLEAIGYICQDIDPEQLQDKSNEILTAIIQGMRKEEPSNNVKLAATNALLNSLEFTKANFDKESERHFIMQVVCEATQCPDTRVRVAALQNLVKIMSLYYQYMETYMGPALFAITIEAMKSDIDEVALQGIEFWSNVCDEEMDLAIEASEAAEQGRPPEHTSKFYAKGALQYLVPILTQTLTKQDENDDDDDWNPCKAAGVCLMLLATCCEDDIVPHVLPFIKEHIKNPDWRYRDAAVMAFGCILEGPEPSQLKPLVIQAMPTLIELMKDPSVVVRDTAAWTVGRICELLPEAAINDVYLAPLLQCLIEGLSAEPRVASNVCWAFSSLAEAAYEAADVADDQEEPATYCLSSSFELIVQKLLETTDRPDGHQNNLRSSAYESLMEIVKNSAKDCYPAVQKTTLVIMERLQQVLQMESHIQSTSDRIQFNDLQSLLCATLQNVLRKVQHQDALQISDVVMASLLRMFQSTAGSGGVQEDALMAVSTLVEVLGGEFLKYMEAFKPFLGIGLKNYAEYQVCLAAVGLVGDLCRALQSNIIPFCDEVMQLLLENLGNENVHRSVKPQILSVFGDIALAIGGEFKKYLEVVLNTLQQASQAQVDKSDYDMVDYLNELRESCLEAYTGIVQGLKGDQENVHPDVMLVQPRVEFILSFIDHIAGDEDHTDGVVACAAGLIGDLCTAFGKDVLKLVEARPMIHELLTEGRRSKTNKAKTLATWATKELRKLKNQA
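FRET biosensor (snurportin 1 IBB flanked by EYFP and cerulean), 50 nM, with compound 5 min, then 0.125 microM importin beta in PBS, 1 mM DTT, 0.02% Tween-20, 0.1% BSA. CFP/YFP ratio read after 45 min at room temperature; pre-read flags interference.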
Rango release inh – inhibitors of RanGTP-induced Rango-importin beta complex dissociation; Biochemical FRET Rango-importin beta, RanGTP-induced dissociation; Potency, µM (titrated, usually from 46.1 µM), for the others: at the highest dose activity change, negative = inhibition; 340,000 compounds, 0.071% hits; O95149+P62826; active means falling FRET ratio curve, often poorly fitted, with flat reads before Ran was added; inconclusive means other falling curves, or compound fluorescence or quenching; inactive means flat or rising ratio curve;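 note: potency is the fitted concentration of half-maximal effect; % of control where 0% means no effect; nearly all actives have a fitted effect of over 45% in size; -100% = wells without RanGTP and RCC1; the record marks most hits as doubtful in a second field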
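Compounds preincubate 5 min with complex of recombinant Rango and importin beta in PBS with 1 mM DTT. Ran (0.6 uM) loaded with 2 mM GTP plus 0.2 uM RCC1 starts dissociation; FRET is recorded 45 min later.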
* = called active by the depositor; ? = inconclusive; . = no result given.

SMILES	GLA inh pH 4.5	miR-21 FLuc	Rango-impB inh	Rango release inh
CCOc1cc(NCc2ccccc2)c2ncn(C(C)C)c2c1	.	.	-2.7%	21%
O=C(Cn1nc(-c2ccccc2)c2ccccc2c1=O)NCC1CCCO1 (stereo not given)	7	-10%	-0.2%	-11%
Oc1ccccc1C(Nc1nccs1)c1ccc2cccnc2c1O (stereo not given)	1	21%	2.6%	4%
Oc1c(CN2CCOCC2)cc(CN2CCOCC2)c(O)c1O	.	.	5.1%	-4%
Cc1ccc(C)c(NC(=O)CSc2n[nH]c(-c3ccccn3)n2)c1	.	28%	-2.5%	4%
CCn1cc(C(=O)NC2CCc3ccccc32)c(=O)c2ccc(C)nc21 (stereo not given)	-3	0%	.	.
COc1ccc2nc(NC(=O)CSc3nccc(C)n3)sc2c1	-4	-1%	-2.0%	15%
Cc1ccccc1NC(=O)CSc1nc2c(c(=O)n(C)c(=O)n2C)n1C	.	12%	-0.2%	-6%
CCOC(=O)c1cnc(SCc2nc(N)nc(Nc3ccc(C)cc3)n2)nc1N	-11	-19%	-0.6%	4%
Cc1cc(Nc2ccc(F)cc2Cl)n2ncnc2n1	-3	-10%	-0.3%	-11%
CCOC(=O)c1cc2sccc2n1CC(=O)N1CCc2ccccc21	-3	-1%	1.0%	-6%
Cn1cnnc1SCC(=O)Nc1ccccc1Oc1ccccc1	-12	0%	-1.4%	-21%
CSc1ccc(S(=O)(=O)NCC(=O)OCC(=O)N(C)CC(=O)Nc2ccc(F)cc2)cc1[N+](=O)[O-]	.	.	?	-4%
O=C(NCCC1=CCCCC1)c1cc(COc2c(F)cccc2F)on1	.	-13%	-3.9%	-3%
CCc1nnc(NC(=O)CSc2nnc(-c3ccoc3C)n2-c2ccccc2)s1	-6	5%	0.3%	10%
CCOc1ccc(N2C(=O)CC(N3CCN(c4ccc(Cl)cc4)CC3)C2=O)cc1 (stereo not given)	.	4%	-1.1%	-12%
CCSCc1nc2ccccn2c1Br	-13	-13%	?	?
CCCCOc1ccc(SCCCN2CCOCC2)cc1	.	.	-2.1%	2%
CCOC(=O)N1CCN(C(=O)c2ccc3nc(SCc4ccc(F)cc4)n(C)c3c2)CC1	-2	10%	0.3%	4%
CC(=O)N1CCN(c2ccc(NCc3ccc(C)cc3)cc2)CC1	3	-1%	-0.5%	-14%
Cc1c(C(=O)N(Cc2ccc(F)cc2)C2CCS(=O)(=O)C2)oc2ccccc12 (stereo not given)	.	1%	3.2%	16%
N#Cc1ccccc1COC(=O)c1ccc2c(c1)OCCO2	.	.	-0.8%	-6%
Cc1cccc(C2=NN(c3ccccc3)[C@@H](C(=O)N3CCOC3=O)[C@@H]2c2ccc([N+](=O)[O-])cc2)c1	-13	.	-1.0%	1%
Cc1[nH]ccc(=O)c1Oc1ncc(C(F)(F)F)cc1Cl	7	0%	1.9%	-10%
Cn1nc(C(=O)N2CCN(c3ccccn3)CC2)c2ccccc2c1=O	.	.	-0.1%	-2%
Nc1nnc(SCc2ccc3c(c2)OCO3)s1	13	-30%	-0.9%	-8%
Cc1ccc(C)c(Cn2cnc3c(cnn3C(C)(C)C)c2=O)c1	-1	0%	4.6%	-19%
COc1ccc(C(=O)Nc2cccc(-c3ccc4nncn4n3)c2)cc1OC	3	0%	0.0%	1%
CCOc1ccc(NC(=O)c2oc3ccccc3c2NC(=O)CC)cc1	10	-40%	.	.
Cc1ccc(O)c(C(=O)c2cnn(-c3ccc(S(=O)(=O)N4CCOCC4)cc3[N+](=O)[O-])c2)c1	-1	-1%	-2.4%	-11%
CCCc1cc(=O)[nH]c(SCC(=O)NC2CC2)n1	.	.	0.9%	-4%
COc1cc(CCC(=O)NNC(=O)c2cccc(Cl)c2)cc(OC)c1OC	.	-1%	-3.1%	-1%
CCOC(=O)C1(Cc2ccc(OC)cc2)CCN(C(=O)c2sc(C)nc2C)CC1	1	1%	-1.3%	-10%
O=C(CCN1C(=O)/C(=C/c2ccccc2Cl)SC1=S)NCCCN1CCOCC1	.	0%	-1.6%	18%
Cc1cccc(OCc2ccc(C(=O)N3CCOCC3)o2)c1	.	-2%	-0.6%	-9%
Cc1cc(Br)ccc1OCCn1ccnc1	-3	-5%	-0.4%	?
C=CCN(C(=O)c1cccc(S(=O)(=O)N2CCN(C)CC2)c1)c1nc(-c2ccccc2)cs1	-2	22%	-2.6%	10%
CCCc1cc(=O)n2[nH]c(SCc3ccccc3)nc2n1	5	0%	-2.9%	5%
O=C(NCc1n[nH]c(=S)n1-c1ccccc1Cl)c1ccc(S(=O)(=O)N2CCCCC2)cc1	.	-5%	0.9%	-5%
Cc1cc(C(=O)COC(=O)c2cccs2)c(C)n1-c1c(C)n(C)n(-c2ccccc2)c1=O	1	-4%	0.0%	1%
CC(C)OP(=O)(OC(C)C)C(Nc1ccccc1)c1cccc2c1OCO2 (stereo not given)	4	-3%	-3.2%	-7%
CN(Cc1ccc(C(C)(C)C)cc1)C(=O)c1ccc2c(=O)n3c(nc2c1)CCC3	.	.	-1.0%	5%
O=C(Nc1ccccc1)c1ccc(NCc2cccnc2)c(S(=O)(=O)N2CCOCC2)c1	1	-1%	0.1%	-17%
O=Nc1c2cc3ccccc3[nH]c-2c2ccccc12	.	.	-2.4%	3%
COc1cc(-c2cc(=O)c3c(O)c(OC)c(OC)c(O)c3o2)ccc1O	-1	-24%	-1.0%	-5%

Shown with the structure last: part of the list above
GLA inh pH 4.5	miR-21 FLuc	Rango-impB inh	Rango release inh	compound
1	1%	-1.3%	-10%	CCOC(=O)C1(Cc2ccc(OC)cc2)CCN(C(=O)c2sc(C)nc2C)CC1
.	-1%	-3.1%	-1%	COc1cc(CCC(=O)NNC(=O)c2cccc(Cl)c2)cc(OC)c1OC
.	.	-2.4%	3%	O=Nc1c2cc3ccccc3[nH]c-2c2ccccc12
-3	-5%	-0.4%	?	Cc1cc(Br)ccc1OCCn1ccnc1
-2	22%	-2.6%	10%	C=CCN(C(=O)c1cccc(S(=O)(=O)N2CCN(C)CC2)c1)c1nc(-c2ccccc2)cs1

Later entries.
SMILES	GLA inh pH 4.5	miR-21 FLuc	Rango-impB inh	Rango release inh
O=C(OCC(=O)N1CCCC1)c1ccc(O)cc1	.	-8%	-4.4%	-4%
O=C(CCN1CCN(C/C=C/c2ccccc2)CC1)Nc1cccc(F)c1	-25	4%	0.0%	16%
O=C(COC(=O)c1cccc(S(=O)(=O)N2CCCCC2)c1)NC1CCCc2ccccc21 (stereo not given)	-7	-12%	-1.0%	2%
O=C(NNC(=S)Nc1ccccc1)c1cccc(Br)c1	-2	-46%	0.0%	1%
COC(=O)C(C)Sc1nc(NCc2ccccc2)nc(N(C)C)n1 (stereo not given)	-1	0%	-5.2%	4%
O=C(c1ccc2c(=O)n3c(nc2c1)CCCCC3)N1CCCCC1	.	-7%	-2.0%	20%
Cc1ccccc1OCCn1c(CCNC(=O)C(C)C)nc2ccccc21	-2	-1%	0.4%	9%
COc1ccc(C(=O)NC2CCN(S(=O)(=O)c3ccc(F)cc3)CC2)cc1	.	-3%	0.3%	-3%
Cc1ccc(-c2nnn(CC(=O)N(CC3CCCO3)C(C(=O)NC3CCCC3)c3ccc(O)cc3)n2)o1 (stereo not given)	0	-10%	3.5%	2%
COc1ccc(NC(=O)CN(C)S(=O)(=O)c2ccccc2)c([N+](=O)[O-])c1	-13	-6%	?	0%
COc1ccc(Nc2nc(NC(C)(C)C)nc(N3CCOCC3)n2)c(OC)c1	-13	-18%	2.7%	?
O=C(Nc1ccncc1)c1sc2ccccc2c1Cl	1	-32%	4.8%	0%
COc1nn(CC(=O)N2N=C(C)CC2(O)C(F)F)cc1[N+](=O)[O-] (stereo not given)	-4	0%	?	-1%
COc1cc(Cl)c(C)cc1NC(=O)c1ccc(S(C)(=O)=O)cc1	-16	-10%	1.0%	4%
Cc1ccc2nc(N(CCCN(C)C)C(=O)c3ccc(S(=O)(=O)N4CCCCCC4)cc3)sc2c1	.	-1%	0.7%	-5%
O=C(Nc1nnc(CCS(=O)(=O)c2ccc3ccccc3c2)s1)c1cccs1	0	-8%	6.9%	2%
O=C(Nc1ccc(C(=O)O)cc1)Nc1ccc([N+](=O)[O-])cc1	.	0%	2.0%	0%
CC1=CC(C)(C)NC(=S)N1C(C)c1ccccc1 (stereo not given)	.	5%	0.7%	-17%
Cn1c(N/N=C\c2cccc(O)c2)cc(=O)n(C)c1=O	-5	-8%	-0.2%	8%
Cc1ccc(C)c(CSc2nc(-c3ccco3)nc3c2c(=O)n(C)c(=O)n3C)c1	8	1%	.	.
C(=C\c1ccccc1)/C=N/Nc1nc(N2CCOCC2)nc(N2CCOCC2)n1	0	-3%	-1.2%	0%
Cc1ccc(N2CC(=O)N(NC(=O)c3sc4nc(C)cc(C)c4c3N)CC2=O)cc1	0	6%	?	-20%
COC(=O)c1c(NC(=O)COC(=O)CNC(=O)C2CCCCC2)sc(C)c1C	6	0%	-2.0%	9%
CC(CC(=O)Nc1nccs1)c1ccccc1 (stereo not given)	.	0%	-0.3%	-23%
Cc1cc(C)cc(NC(=S)NC2CC3CCC(C2)N3Cc2ccco2)c1 (stereo not given)	4	-1%	-1.4%	-1%
Cc1ccc(C2=Nc3ccccc3NC(C)(c3ccc(C)o3)C2)o1 (stereo not given)	-9	-27%	?	-27%
Cc1ccc(C)c2c1cc(C)c1nnc(SCC(=O)Nc3nc4c(s3)CCCC4)n12	-3	-5%	-0.7%	6%
Cc1cc(C)n2nc(C(=O)OCC(=O)N(C)C3CCCCC3)nc2n1	.	.	1.3%	-10%
O=C1Cc2cc(S(=O)(=O)NCc3ccccc3Cl)cc3c2N1CCC3	.	-6%	-0.7%	16%
Cc1nc(NC(=O)CSc2nnc(N)s2)c(Cl)cc1Cl	3	-13%	-0.7%	-8%

In the list so far, three contain bromine:
SMILES	GLA inh pH 4.5	miR-21 FLuc	Rango-impB inh	Rango release inh
CCSCc1nc2ccccn2c1Br	-13	-13%	?	?
Cc1cc(Br)ccc1OCCn1ccnc1	-3	-5%	-0.4%	?
O=C(NNC(=S)Nc1ccccc1)c1cccc(Br)c1	-2	-46%	0.0%	1%

Other records.
SMILES	GLA inh pH 4.5	miR-21 FLuc	Rango-impB inh	Rango release inh
COC(=O)c1ccc(OCC(=O)N2CCCc3ccccc32)cc1	.	-9%	5.4%	2%
CC1(C(=O)O)CCC(C(=O)N2CCOCC2)C1(C)C (stereo not given)	0	-4%	0.5%	6%
O=C(c1coc(=O)c(Br)c1)N1CCCc2ccccc21	12	-14%	?	-33%
O=C(Nc1ccc(OC(F)(F)F)cc1)C1CCCCN1S(=O)(=O)c1ccccc1 (stereo not given)	.	.	3.6%	-6%
CC(C)N1C(=O)N(c2ccccc2)C(C)(O)CC1(C)C (stereo not given)	1	3%	4.6%	-10%
CCCCc1cc(=O)oc2c(C)c(OCC(=O)N3CCC(C(N)=O)CC3)ccc12	.	-10%	0.5%	9%
Cc1cccc(NC(=O)c2onc3c2CCCC3)c1C	-20	-47%	8.4%	-1%
CCOCCCn1c(SCC(=O)Nc2oc(C)c3c(C)n[nH]c(=O)c23)nc2ccccc2c1=O	.	.	-3.9%	-6%
Cc1n[nH]c(=S)n1/N=C/c1ccccc1OCc1ccc(Cl)cc1	-2	-89%	8.1%	0%
CC(C)N(Cc1nc(-c2ccccc2)no1)C(=O)c1ccc2c(c1)OCO2	-7	-1%	3.1%	-2%
O=c1[nH]cnc2c1ncn2-c1ccc(Cl)cc1	.	.	-0.1%	-6%
Cc1ccc(S(=O)(=O)NCC2CCC(C(=O)N3CCN(C)CC3)CC2)cc1 (stereo not given)	.	1%	-1.9%	-19%
O=C1C=C(N2CCCCCC2)C2(CCCCC2)O1	2	7%	1.0%	3%
CS(=O)(=O)N(CC(=O)Nc1ccc(F)cc1F)c1cccc([N+](=O)[O-])c1	4	-6%	-1.3%	21%
CN(CCC#N)C(=O)COC(=O)c1ccc2c(=O)n3c(nc2c1)CCC3	1	-1%	-4.6%	-1%
OCCN1CCN(c2nc(-c3ccccc3)c3cc(Cl)ccc3n2)CC1	-13	-14%	?	?
CCOc1ncccc1C(=O)N1CCN(S(=O)(=O)c2ccc(Br)cc2Cl)CC1	-2	1%	-4.0%	-4%

An excerpt; count on the stated rates, not on these rows.
